DUX4 inh = blocks DUX4-driven transcriptional activation | activity change, negative = inhibition, % (no concentration beside the values) | 0.8% of 37,000 active | 293T-iDUX4 ZSCAN4-Gaussia luciferase reporter, 24 h; active compounds read low | AID 1224904;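 active = -10% or lower and over 25 points stronger than a control reporter; inconclusive = -10% or lower with a smaller gap; inactive = above -10%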;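 also: 0% = median of neutral control wells and -100% = median of positive control wells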
DUX4 inh difference = recorded beside DUX4 inh, whose call it bears; Gaussia minus Italica difference, %; measured here: selective DUX4 reporter inhibition;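 worked out from the two reporters; negative = selective loss of the DUX4 reporter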
DUX4 inh control = further read-out of DUX4 inh, marked with its call; activity change, negative = inhibition, %; measured here: Italica tet-on control reporter;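 0 = neutral control and -100 = positive control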
* hit, by the source's call; ? = inconclusive; . = no result given. The list is partial; rates above refer to the full screens.

1: O=C(c1ccc2c(c1)OCO2)N1CC[C@@H]2[C@H]1c1cc(-c3ccccc3)ccc1N[C@@H]2CO
2: C[C@@H](O)C#Cc1ccc([C@@H]2[C@@H](CO)N3CCCCN(C(=O)c4cccc(F)c4)C[C@H]23)cc1
3: O=S(=O)(c1ccc(F)cc1)N1CCCCN2[C@H](CO)[C@@H](c3ccc(-c4cncnc4)cc3)[C@@H]2C1
4: CCCC#Cc1ccc([C@H]2[C@H]3CN(C(=O)c4cccc(F)c4)CC(=O)N3[C@H]2CO)cc1
5: O=C(Cc1ccncc1)NCC[C@H]1CC[C@H](NC(=O)Nc2cccc(F)c2)[C@@H](CO)O1
6: O=C(Nc1cccc(F)c1)N1CC(=O)N2[C@H](C1)[C@@H](c1ccc(C#CCC3CCCC3)cc1)[C@@H]2CO
7: O=C(C[C@@H]1CC[C@@H]2[C@H](COC[C@H](O)CN2Cc2ccccc2F)O1)NCc1ccccc1F
8: O=C(Cc1ccccc1)N1C[C@H]2[C@@H](c3ccccc31)[C@H](CO)N2C(=O)C1CCCCC1

screen / no. | 1 | 2 | 3 | 4 | 5 | 6 | 7 | 8
DUX4 inh difference | 4 | 7 | -7 | 3 | 10 | 7 | -6 | -4
DUX4 inh control | 2.7 | 13 | -2.1 | -12 | -3.5 | 1.3 | 2.1 | 4.5
DUX4 inh | 6 | 20 | -10 | -9 | 7 | 8 | -4 | 1

One compound at a time (already shown).
`O=C(c1ccc2c(c1)OCO2)N1CC[C@@H]2[C@H]1c1cc(-c3ccccc3)ccc1N[C@@H]2CO` is listed as DUX4 inh difference = 4; DUX4 inh control = 2.7; DUX4 inh = 6
`O=C(Cc1ccccc1)N1C[C@H]2[C@@H](c3ccccc31)[C@H](CO)N2C(=O)C1CCCCC1` is listed as DUX4 inh difference = -4; DUX4 inh control = 4.5; DUX4 inh = 1
`O=C(Nc1cccc(F)c1)N1CC(=O)N2[C@H](C1)[C@@H](c1ccc(C#CCC3CCCC3)cc1)[C@@H]2CO` is listed as DUX4 inh difference = 7; DUX4 inh control = 1.3; DUX4 inh = 8

Continued:
9: C[C@H](O)C#Cc1ccc2c(c1)O[C@@H](CN(C)Cc1ccc(-c3ccccc3)cc1)[C@H](C)CN([C@@H](C)CO)S2(=O)=O
10: Cc1noc(C)c1NC(=O)N1C[C@@H](O)COC[C@H]2O[C@H](CC(=O)N[C@H]3CCN(Cc4ccccc4)C3)CC[C@@H]21
11: C/C=C/c1ccc([C@H]2[C@@H](CO)N(C(=O)CC)[C@H]2CN(C)C(=O)NC(C)C)cc1
12: C[C@@H]1CN([C@H](C)CO)C(=O)c2ccccc2-c2ccccc2CO[C@H]1CN(C)S(=O)(=O)c1ccc(C(F)(F)F)cc1
13: O=C(Nc1cccc(F)c1)N1C[C@@H]2[C@H](c3ccccc31)[C@@H](CO)N2C(=O)c1ccccc1F
14: CO[C@H]1CC[C@H]2CCOc3c(C#N)cccc3C(=O)N(C)[C@@H](C)C(=O)N(C)C[C@H]1O2
15: C/C=C/c1ccccc1[C@H]1[C@H](C#N)N(C(=O)c2cccnc2)[C@H]1CO
16: CN1c2ccc(-c3cccc(F)c3)cc2[C@@H]2[C@@H](CCN2C(=O)Cc2ccccc2)[C@@H]1CO

screen / no. | 9 | 10 | 11 | 12 | 13 | 14 | 15 | 16
DUX4 inh difference | -1 | 1 | -4 | -9 | 0 | 2 | -1 | 7
DUX4 inh control | 4.4 | 5.9 | 0.8 | 3.1 | 0.9 | -2.7 | -0.8 | -14
DUX4 inh | 3 | 7 | -3 | -6 | 1 | -1 | -1 | -7

17: Cc1noc(C)c1NC(=O)Nc1cccc2c1O[C@H](CN(C)C(=O)NC1CCCCC1)[C@@H](C)CN([C@H](C)CO)C2=O
18: O=C(N[C@@H]1CC[C@@H](CC(=O)N2CCN(c3ccccc3)CC2)O[C@H]1CO)c1ccncc1
19: Cc1ccc(S(=O)(=O)N2C[C@H](O)COC[C@H]3O[C@@H](CC(=O)N[C@@H]4CCN(Cc5ccccc5)C4)CC[C@@H]32)cc1
20: COc1ccc(NC(=O)N[C@H]2CC[C@@H](CCn3cc(C4(O)CCCC4)nn3)O[C@H]2CO)cc1
21: C[C@H]1CCCCO[C@@H](CN(C)Cc2ccc(C(F)(F)F)cc2)[C@@H](C)CN([C@@H](C)CO)C(=O)c2cc(NC(=O)CCCN(C)C)ccc2O1
22: CCNC(=O)[C@@H]1[C@@H](CO)[C@@H]2Cn3c(ccc(-c4ccccc4F)c3=O)[C@H]1N2CCC(F)(F)F
23: CCCC(=O)Nc1ccc2c(c1)OC[C@H](C)N(Cc1cncnc1)C[C@@H](C)[C@@H](OC)CN(C)C2=O
24: CC(C)[C@@H](C)NC(=O)N(C)C[C@@H]1OCc2ccccc2-c2ccccc2C(=O)N([C@H](C)CO)C[C@H]1C

screen / no. | 17 | 18 | 19 | 20 | 21 | 22 | 23 | 24
DUX4 inh difference | 4 | 0 | 5 | 5 | -2 | 0 | -1 | -7
DUX4 inh control | -2.2 | 3.4 | -4.3 | -3.5 | 4.6 | 3.3 | 3.4 | 6.4
DUX4 inh | 1 | 3 | 0 | 1 | 3 | 3 | 3 | -1

25: O=C(C[C@@H]1CC[C@@H](NC(=O)c2ccc(F)cc2)[C@@H](CO)O1)NCCc1ccccc1
26: COc1ccc(C#Cc2ccc([C@@H]3[C@@H](CO)N4C(=O)CN(C(C)=O)C[C@H]34)cc2)cc1
27: COc1ccc(NC(=O)N2CCCCN3[C@H](C2)[C@H](c2ccc(-c4ccccc4F)cc2)[C@@H]3CO)cc1
28: C[C@H]1CN([C@@H](C)CO)C(=O)c2cc(NC(=O)NC3CCCCC3)ccc2O[C@H]1CN(C)Cc1ccc(C(=O)Nc2ccccc2N)cc1
29: O=C(C1CCOCC1)N1CC(=O)N2[C@H](CO)[C@H](c3ccc(Br)cc3)[C@@H]2C1
30: O=C(C[C@H]1C[C@@H]2c3cc(NC(=O)C4CCOCC4)ccc3O[C@@H]2[C@@H](CO)O1)NCC(F)(F)F
31: C[C@H](CO)N1C[C@H](C)[C@H](CN(C)C(=O)Nc2ccc(C(F)(F)F)cc2)OCCCC[C@H](C)Oc2ccc(NS(=O)(=O)c3ccc(Cl)cc3)cc2C1=O
32: N#C[C@@H]1[C@H](c2ccccc2-c2ccccc2F)[C@@H](CO)N1C(=O)Cc1ccccc1

screen / no. | 25 | 26 | 27 | 28 | 29 | 30 | 31 | 32
DUX4 inh difference | 0 | 2 | 5 | 5 | -1 | 3 | -2 | .
DUX4 inh control | -0.7 | 0.0 | -10 | -7.3 | 18 | 8.4 | 2.5 | .
DUX4 inh | -1 | 2 | -5 | -2 | 17 | 11 | 0 | ?

33: CN(C)C(=O)c1cccc(-c2ccc([C@H]3[C@@H](CO)N4CCCCN(C(=O)C5CCC5)C[C@@H]34)cc2)c1
34: O=C(c1ccc2c(c1)OCO2)N1CC[C@@H]2[C@H](CO)Nc3ccc(C#Cc4ccccc4)cc3[C@@H]21
35: O=C(C[C@@H]1CC[C@H]2[C@@H](COC[C@@H](O)CN2Cc2cccc(C(F)(F)F)c2)O1)NCc1ccc(F)cc1
36: N#Cc1cccc(-c2ccc3c(c2)[C@@H]2[C@@H](CCN2C(=O)C2CCCCC2)[C@H](CO)N3)c1
37: COc1ccccc1NC(=O)N[C@@H]1CC[C@H](CCn2cc(-c3cccnc3)nn2)O[C@@H]1CO
38: O=C(CC(F)(F)F)N1C[C@H]2[C@@H](c3ccccc31)[C@H](CO)N2C(=O)CN1CCOCC1
39: CN(C)CC(=O)N1[C@@H](C#N)[C@H](c2ccc(-c3ccc(C(=O)N(C)C)cc3)cc2)[C@@H]1CO
40: COc1cccc(NC(=O)Nc2ccc3c(c2)C(=O)N(C)[C@H]2CC[C@H](CC(=O)NCCc4ccccc4)O[C@@H]2CO3)c1

screen / no. | 33 | 34 | 35 | 36 | 37 | 38 | 39 | 40
DUX4 inh difference | 8 | -38* | . | . | 8 | -1 | -1 | -2
DUX4 inh control | 5.0 | -16* | . | . | 0.7 | 2.5 | -4.8 | 1.0
DUX4 inh | 13 | -54* | ? | ? | 8 | 2 | -6 | -1

41: CN1CCN(C(=O)C[C@@H]2CC[C@H]3[C@@H](COC[C@H](O)CN3C(=O)C3CCCC3)O2)CC1
42: CCC(=O)N1Cc2cc(C(=O)N(C)C)nc(-c3cccc(-c4cncnc4)c3)c2[C@H]1CCO
43: CO[C@H]1CN(C)C(=O)c2cc(NS(C)(=O)=O)ccc2OC[C@H](C)N(C(=O)C2CCOCC2)C[C@@H]1C
44: O=C(c1ccccc1)N1C[C@@H]2[C@H](c3ccccc31)[C@@H](CO)N2Cc1ccccc1F
45: CN1c2ccc(-c3cccc(C#N)c3)cc2[C@@H]2[C@@H](CCN2C(=O)c2cccc(F)c2)[C@@H]1CO
46: Cc1ccccc1S(=O)(=O)N1CC(=O)N2[C@H](CO)[C@@H](c3ccc(C#CCN(C)C)cc3)[C@@H]2C1
47: O=C(N[C@@H]1CC[C@H](CC(=O)N2CCN(c3ccccc3)CC2)O[C@H]1CO)c1ccncc1
48: COc1ccc2c3c([nH]c2c1)[C@@H](CO)N(CC1CCCCC1)CC31CN(C(=O)C2CCOCC2)C1

screen / no. | 41 | 42 | 43 | 44 | 45 | 46 | 47 | 48
DUX4 inh difference | 4 | -2 | 0 | -3 | . | -4 | 4 | .
DUX4 inh control | -0.4 | -0.5 | 4.6 | -0.5 | . | -4.9 | 4.3 | .
DUX4 inh | 4 | -3 | 4 | -3 | ? | -9 | 8 | ?

49: CC(C)COC(=O)N(C)C[C@@H]1OCc2cn(nn2)CCCC(=O)N([C@@H](C)CO)C[C@H]1C
50: CN(C)CCCNC(=O)C[C@H]1CC[C@@H]2[C@@H](COc3ccc(NC(=O)c4cccc(F)c4)cc3C(=O)N2C)O1
51: C/C=C/c1ccc([C@H]2[C@H](CO)N(C(C)=O)[C@H]2CNC(=O)c2ccccc2)cc1
52: N#C[C@@H]1[C@H](c2ccc(C#CCC3CCCC3)cc2)[C@H](CO)N1C(=O)c1ccccn1
53: CCN(C[C@@H]1[C@@H](c2ccc(C3=CCCCC3)cc2)[C@@H](CO)N1CC1CC1)C(C)=O
54: Cc1ccc(NC(=O)C[C@H]2CC[C@H]3[C@@H](COc4ccc(NC(=O)C5CCCCC5)cc4C(=O)N3C)O2)cc1
55: CCCC#Cc1ccc2c(c1)O[C@H](CN(C)C(=O)CC1CC1)[C@@H](C)CN([C@H](C)CO)S2(=O)=O
56: COc1ccc(NC(=O)Nc2cccc3c2O[C@H](CN(C)Cc2ccc(C(=O)O)cc2)[C@H](C)CN([C@H](C)CO)C3=O)cc1

screen / no. | 49 | 50 | 51 | 52 | 53 | 54 | 55 | 56
DUX4 inh difference | -3 | 3 | -2 | 1 | 0 | 9 | -1 | -2
DUX4 inh control | 0.7 | -3.0 | 1.9 | 5.1 | -0.8 | -10 | 2.4 | 0.6
DUX4 inh | -3 | 0 | 0 | 6 | -1 | -2 | 2 | -2

57: O=C(CC1CC1)N1CC[C@@H]2[C@H](CO)Nc3ccc(-c4ccc(F)cc4)cc3[C@@H]21
58: CO[C@@H](CN(C)C(=O)c1cnccn1)[C@@H](C)CN([C@H](C)CO)S(=O)(=O)c1ccccc1
59: C[C@H]1CCCCO[C@H](CN(C)C(=O)Nc2cccc3ccccc23)[C@@H](C)CN([C@@H](C)CO)C(=O)c2cc(NC(=O)c3ccncc3)ccc2O1
60: C[C@@H]1CN([C@H](C)CO)S(=O)(=O)c2ccc(C#CC3CCCC3)cc2O[C@@H]1CN(C)C(=O)Nc1cc(F)ccc1F
61: COc1ccccc1-c1ccccc1[C@H]1[C@@H](C#N)N(C(=O)C2CCC2)[C@@H]1CO
62: COc1cccc(C(=O)Nc2ccc3c(c2)C(=O)N(C)[C@H]2CC[C@H](CC(=O)NCc4ccc(F)cc4)O[C@H]2CO3)c1
63: COc1ccc(C[C@H]2CCc3cnnn3COC[C@@H](C(C)C)NC2=O)cc1
64: CC(=O)N1[C@H](CO)[C@H]2c3ccccc3N(C(=O)c3ccc(F)cc3)C[C@H]21

screen / no. | 57 | 58 | 59 | 60 | 61 | 62 | 63 | 64
DUX4 inh difference | . | -9 | 3 | -3 | -13 | -3 | -6 | 4
DUX4 inh control | . | 0.6 | -0.2 | -2.3 | 11 | 2.6 | 4.2 | 1.3
DUX4 inh | ? | -9 | 2 | -5 | -3 | 0 | -2 | 5

65: CCCNC(=O)N1[C@H](CO)[C@H](c2ccc(C3=CCCCC3)cc2)[C@@H]1C#N
66: COC(=O)[C@H]1[C@H](CO)[C@H]2Cn3c(ccc(C4=CCCC4)c3=O)[C@H]2N1Cc1cncnc1
67: O=C(C1CCOCC1)N1CC(=O)N2[C@H](C1)[C@H](c1ccc(/C=C/c3ccccc3)cc1)[C@@H]2CO
68: O=C(CN1CCOCC1)N1CC2(C1)[C@@H](c1ccccc1)[C@H](CO)N2Cc1cccc(F)c1
69: CCCNC(=O)N1[C@H](CO)[C@H]2c3ccccc3N(C(=O)Nc3cccc(Cl)c3)C[C@H]21
70: C[C@@H]1CN([C@H](C)CO)C(=O)Cc2cc(NC(=O)CCCCCC(=O)Nc3ccccc3N)ccc2O[C@@H]1CN(C)Cc1ccc(C(F)(F)F)cc1
71: CC(=O)NC[C@@H]1[C@@H](c2ccc(-c3cccc(F)c3)cc2)[C@@H](CO)N1C(=O)C1CC1

screen / no. | 65 | 66 | 67 | 68 | 69 | 70 | 71
DUX4 inh difference | 5 | 7 | 1 | -2 | 2 | -5 | 0
DUX4 inh control | 2.8 | -3.0 | 3.6 | 4.2 | 1.2 | -1.7 | -0.2
DUX4 inh | 8 | 4 | 4 | 2 | 3 | -7 | -1
